CSC inhib: cancer stem cell viability inhibitors, primary screen, luminescence; cancer stem cell-like cells viability; inhibition, % at 7.5 µM; hit rate 1.1% among 300,000;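 active means mean at 75% or more and at least half the replicates too; tested in HMLE shEcad cells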;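 further: 0% = median of negative and 100% = median of positive control wells; the first replicate is given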
PABP polyA inh: PABP poly(A) RNA binding inhibitors, primary screen, biochemical, fluorescence polarization, uHTS; inhibition, % at 35 µM; hit rate 1% among 290,000;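 active means 50% or more with normal probe brightness, or confirmed in later tests; about a fifth of its hits are not listed in these tables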;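 further: calls also rest on retests at 20 µM and on dose response follow-up; controls were probe without protein and protein plus probe with vehicle; some compounds called inactive have numbers as strong as hits; many hits fall short of the cut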
MT1-MMP act inh: blockers of MT1-MMP proenzyme processing, primary screen, HT1080 RFP-PRO-GFP cells, GFP/RFP fluorescence; Matrix metalloproteinase-14 (Homo sapiens), P50281; GFP/RFP ratio fluorescence, overnight; percent of plate control window, DMSO zero; GFP/RFP ratio change, % at 20 µM; hit rate 0.061% among 360,000;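 active means GFP/RFP ratio change of at least 30% with cell ATP level not reduced by more than half and red fluorescence within 50% of control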; further: strong numbers were not always called active
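Compound: 20 µM single dose, 1% DMSO / System: HT1080 RFP-PRO-GFP cells / Controls: DMSO and RFP-L50D-GFP cell wells / Read-out basis: GFP/RFP fluorescence ratio / Schedule: overnight compound exposure at 37 °C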
eIF4H inh: human eIF4H binding inhibitors, primary screen, translation initiation inhibitor project, biochemical, uHTS, fluorescence polarization. eIF4H fluorescence polarization binding assay. inhibition, % at 35 µM. hit rate 0.94% among 290,000. Eukaryotic translation initiation factor 4H (Homo sapiens), Q15056;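 active means 50% or more with normal probe brightness, or confirmed in later tests; about a fifth of its hits are not listed in these tables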;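 further: calls also rest on retests at 20 µM and on dose response follow-up; 0% = protein and probe with vehicle and 100% = probe without protein; strong numbers were not always called active; many hits fall short of the cut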
HIV Env fusion: inhibitors of HIV-1 Env-driven cell-cell fusion, primary screen, HeLa-JRFL effector, CEM21 target cells, luciferase; AID 651610, 2012; hit rate 1.1% among 360,000; inhibition, % at 12.3 µM;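 active means mean replicate inhibition score of at least 50 and every replicate individually at or above 50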;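 further: 0% = plate neutral controls and 100% = maraviroc near 300 nM; one replicate is shown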
Rce1 inh: yeast Rce1p protease inhibitors, primary screen, biochemical, fluorescence, cell-free homogeneous | CAAX prenyl protease 2 (Saccharomyces cerevisiae (strain ATCC 204508 / S288c)), Q03530 | yeast membranes, quenched prenylated peptide cleavage fluorescence | calls only | hit rate 0.27% among 290,000 | AID 2563, 2010;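 active means fall in fluorescence gain of 50% or more versus controls, with final raw signal at or below 3038400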;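 further: plate controls were neutral control wells for no effect and wells lacking membranes for full effect; tested at 10 µM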
Target sequence (Q03530 whole entry, looked up): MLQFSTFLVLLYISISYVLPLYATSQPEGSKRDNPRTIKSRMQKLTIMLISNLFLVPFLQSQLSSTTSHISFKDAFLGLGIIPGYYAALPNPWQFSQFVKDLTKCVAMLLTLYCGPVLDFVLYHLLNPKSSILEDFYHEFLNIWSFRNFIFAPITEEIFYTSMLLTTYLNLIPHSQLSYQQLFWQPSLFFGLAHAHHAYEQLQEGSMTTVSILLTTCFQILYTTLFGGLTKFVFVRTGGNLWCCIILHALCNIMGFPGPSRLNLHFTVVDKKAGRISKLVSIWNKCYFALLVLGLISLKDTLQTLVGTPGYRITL
Yeast UUG start: modulators of yeast start codon fidelity, primary screen, whole organism, S. cerevisiae, single point, plate reader; S. cerevisiae UUG-firefly luciferase reporter, luminescence/redox ratio; activity score, % at 18.7 µM; hit rate 0.13% among 350,000; AID 602363, 2012;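 active means replicate mean at a twofold rise or more, about +100% in these data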;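 further: firefly luciferase made from a UUG start codon reports start codon fidelity; reporter light over untreated wells divided by growth signal over untreated wells; some hits fall short of that in this replicate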
MT1-MMP act inh RFP: further read-out of MT1-MMP act inh, marked with its call; RFP signal change, %; measured here: RFP expression control read;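 0 = vehicle wells; hits needed this value within 50% of zero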
The depositor's hits bear a star; i = inactive; . = not tested or not shown. A portion of the library. The share of hits here may be higher or lower than overall.

#1 COc1cccc(CC(=O)OCC(=O)N(C)CC(=O)Nc2ccc(Cl)c(C(F)(F)F)c2)c1
#2 CCOc1ccc(CN2CCNC(=O)C2CC(=O)NCCN2CCOC2=O)cc1 (configuration not stated)
#3 Cc1ccc(OCC(=O)Nc2ccc(N3CCOCC3)cc2)cc1
#4 COC(=O)c1c(C)[nH]c(C(=O)C(C)OC(=O)C2CC(=O)N(CCc3ccccc3)C2)c1C (configuration not stated)
#5 COc1ccc(NC(=O)C2CCN(c3nnnn3-c3ccccc3)CC2)cc1
#6 CN=C(Nc1cc(C)nn1CCC#N)c1ccccc1
#7 N#CCC(=O)Nc1ccc(C(=O)OCC(=O)N=c2sccn2Cc2ccccc2Cl)cc1
#8 O=C(NCCCN1CCN(c2ccc(F)cc2)CC1)NC12CC3CC(CC(C3)C1)C2

screen / no. | 1 | 2 | 3 | 4 | 5 | 6 | 7 | 8
CSC inhib | -6 | 1 | 15 | 1 | -2 | -10 | -9 | -7
PABP polyA inh | . | 7 | -4 | . | -8 | 6 | . | -8
MT1-MMP act inh | 8 | -1 | -1 | 1 | 8 | 3 | -5 | 0
MT1-MMP act inh RFP | 1 | 4 | 0 | 0 | 1 | -1 | -3 | -9
eIF4H inh | . | 7 | -9 | . | -6 | 1 | . | -2
HIV Env fusion | 5 | 11 | . | 19 | -84 | . | . | 34
Rce1 inh | i | i | i | . | . | i | i | i
Yeast UUG start | 6 | -27 | -9 | -15 | 2 | -14 | . | 11

#9 O=S(=O)(Nc1nc2ccccc2nc1Cl)c1ccc(F)cc1
#10 Cc1cc2c(cc1C)C(=O)C(Br)=C(N)C2=O
#11 NC(=O)/C(=C\c1ccc([N+](=O)[O-])o1)c1ccco1
#12 Cc1ccc2cc(CN(Cc3ccco3)C(=S)NCC3CCCO3)c(=O)[nH]c2c1 (configuration not stated)
#13 CC(=O)NCCOc1ccc2oc3ccccc3c2c1
#14 CC(C)NC(=O)NC(=O)COC(=O)c1cccc(S(=O)(=O)N2CCCCC2)c1
#15 Oc1ccc(C=Nc2ccc3ncccc3c2)c(O)c1
#16 Cc1ccc(F)c(S(=O)(=O)NC(=O)C2(C)CCN2C(=O)CCc2ccccc2)c1 (configuration not stated)

screen / no. | 9 | 10 | 11 | 12 | 13 | 14 | 15 | 16
CSC inhib | -21 | . | . | -7 | 7 | -7 | -10 | .
PABP polyA inh | 1 | . | . | 1 | 7 | 11 | 62* | .
MT1-MMP act inh | -2 | 8 | 1 | 0 | 0 | 1 | . | -1
MT1-MMP act inh RFP | -4 | -1 | 4 | -3 | -1 | 4 | . | 2
eIF4H inh | -5 | . | . | -9 | -3 | -2 | 81* | .
HIV Env fusion | 0 | -30 | -2 | . | . | -24 | . | -2
Rce1 inh | i | . | . | i | . | i | i | .
Yeast UUG start | 7 | -12 | 4 | -20 | -16 | . | . | 5

#17 O=C(COC(=O)[C@H](Cc1c[nH]c2ccccc12)NC(=O)c1ccc(Cl)cc1)Nc1ccc2c(c1)OCO2
#18 O=C(c1cc2ccccc2oc1=O)N(Cc1cccs1)CC1CCCO1 (configuration not stated)
#19 COC(=O)CN1C(=O)C(O)=C(C(C)=O)C1c1ccc([N+](=O)[O-])cc1 (configuration not stated)
#20 Cc1nn(C)c(Oc2ccccc2)c1CCNC(=O)CC(C)C
#21 CCc1nc2c(OCc3ccc(Cl)cc3Cl)cccn2c1N(C)C(=O)c1ccccc1F
#22 O=C(NCc1cccc(Cl)c1)c1ccc(-c2csnn2)cc1
#23 CC(C)(C)c1cc(C(F)(F)F)n2ncc(-c3ccccc3)c2n1
#24 CCOc1ccccc1C(=O)N(C)Cc1cc2ccccc2[nH]c1=O

screen / no. | 17 | 18 | 19 | 20 | 21 | 22 | 23 | 24
CSC inhib | -8 | -5 | -11 | -3 | . | 16 | 28 | -14
PABP polyA inh | -8 | 6 | 14 | 4 | . | -4 | 6 | 0
MT1-MMP act inh | 8 | 1 | -2 | 3 | -2 | 10 | -1 | 2
MT1-MMP act inh RFP | 2 | -1 | 0 | -3 | -13 | 3 | 2 | -3
eIF4H inh | 4 | 2 | -7 | 3 | . | 8 | 9 | 5
HIV Env fusion | -19 | 5 | -15 | 11 | 20 | -10 | -15 | .
Rce1 inh | i | i | i | i | . | i | i | i
Yeast UUG start | -18 | -3 | -12 | . | -13 | -15 | 0 | 4

Complete entries, quoted from the list. Screens in order: CSC inhib, PABP polyA inh, MT1-MMP act inh, MT1-MMP act inh RFP, eIF4H inh, HIV Env fusion, Rce1 inh, Yeast UUG start
`O=C(NCc1cccc(Cl)c1)c1ccc(-c2csnn2)cc1` is listed as 16, -4, 10, 3, 8, -10, i, -15
`Cc1nn(C)c(Oc2ccccc2)c1CCNC(=O)CC(C)C` is listed as -3, 4, 3, -3, 3, 11, i, .

Quoted from above: entries 16 to 22
#16 Cc1ccc(F)c(S(=O)(=O)NC(=O)C2(C)CCN2C(=O)CCc2ccccc2)c1 (configuration not stated)
#17 O=C(COC(=O)[C@H](Cc1c[nH]c2ccccc12)NC(=O)c1ccc(Cl)cc1)Nc1ccc2c(c1)OCO2
#18 O=C(c1cc2ccccc2oc1=O)N(Cc1cccs1)CC1CCCO1 (configuration not stated)
#19 COC(=O)CN1C(=O)C(O)=C(C(C)=O)C1c1ccc([N+](=O)[O-])cc1 (configuration not stated)
#20 Cc1nn(C)c(Oc2ccccc2)c1CCNC(=O)CC(C)C
#21 CCc1nc2c(OCc3ccc(Cl)cc3Cl)cccn2c1N(C)C(=O)c1ccccc1F
#22 O=C(NCc1cccc(Cl)c1)c1ccc(-c2csnn2)cc1

screen / no. | 16 | 17 | 18 | 19 | 20 | 21 | 22
CSC inhib | . | -8 | -5 | -11 | -3 | . | 16
PABP polyA inh | . | -8 | 6 | 14 | 4 | . | -4
MT1-MMP act inh | -1 | 8 | 1 | -2 | 3 | -2 | 10
MT1-MMP act inh RFP | 2 | 2 | -1 | 0 | -3 | -13 | 3
eIF4H inh | . | 4 | 2 | -7 | 3 | . | 8
HIV Env fusion | -2 | -19 | 5 | -15 | 11 | 20 | -10
Rce1 inh | . | i | i | i | i | . | i
Yeast UUG start | 5 | -18 | -3 | -12 | . | -13 | -15

Following part
#25 O=C(Nc1csc(Cc2c(Cl)cccc2Cl)n1)NN1CCOCC1
#26 Cc1nc(SCC(=O)N(C)C2CCS(=O)(=O)C2)c(C#N)c(C)c1C (configuration not stated)
#27 COc1ccc(NC2c3ncccc3C(=O)N2Cc2ccccc2)c(OC)c1 (configuration not stated)
#28 O=C(COC(=O)c1cc(-c2ccccc2)nc2ccccc12)NC1CC1
#29 Nc1cccc2c1C(=O)N(C(=O)/C=C/c1ccc(F)cc1)C2=O
#30 Cc1ccc(S(=O)(=O)CC(=O)Nc2ccc3nc(C)sc3c2)cc1
#31 O=C(CNS(=O)(=O)c1ccc(Cl)cc1)N1CCN(c2ccc(F)cc2)CC1
#32 C=CCn1c(O)c(N=Nc2ccccc2C)c2ccccc21

screen / no. | 25 | 26 | 27 | 28 | 29 | 30 | 31 | 32
CSC inhib | . | . | -11 | -13 | -3 | -9 | 3 | -3
PABP polyA inh | 7 | . | -2 | . | 15 | -4 | . | 4
MT1-MMP act inh | -5 | -3 | 1 | -2 | -3 | 3 | 0 | .
MT1-MMP act inh RFP | -1 | 1 | 3 | -1 | 0 | 5 | -12 | .
eIF4H inh | -10 | . | 10 | . | 9 | 7 | . | -7
HIV Env fusion | -44 | -3 | 32 | . | -66 | -8 | . | -13
Rce1 inh | i | . | i | . | i | i | . | i
Yeast UUG start | -9 | -2 | -8 | -8 | -11 | -22 | 6 | .

Screen by screen, as entered above:
Yeast UUG start, compounds 26 to 31, in order: -2, -8, -8, -11, -22, 6
MT1-MMP act inh, compounds 26 to 31, in order: -3, 1, -2, -3, 3, 0
MT1-MMP act inh RFP, compounds 26 to 31, in order: 1, 3, -1, 0, 5, -12

Screening data deposited in PubChem by several laboratories.
